# PMP22 txn = Cell-based coincidence reporter assay to measure PMP22 gene transcription in S16 Pmp22-F2sN cells - Primary screen | Potency, µM (doses to about 57.5 µM), without a hit: top-dose activity change, negative = inhibition, usual class: inhibitors | hit rate 2% among 43,000 | AID 1508649, 2021 | S16 Pmp22-F2sN Schwann cells (luciferase reporters placed in the Pmp22 gene), FLuc/NLuc coincidence luminescence, 24 h; active = clear falling dose curves in both reporters; inconclusive = both reporters move, but less clearly or upward; inactive = either reporter flat; the % is the NLuc reporter signal; further: on the % scale 0 is the no-effect control and ±100 the full control effect; some results filed as inactive show a strong effect at the top dose
#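 Transcriptional readout in edited S16(c9) cells: two luciferases reported from the Pmp22 locus, measured in turn after 24 h compound incubation.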
# HTT prom inh = Primary qHTS for Identification of Small Molecule Inhibitors of Huntingtin Promoter Activity. HEK293 HTT promoter firefly luciferase reporter (activity 0% = vehicle and -100% = no light), 24 h. Potency, µM (top dose mostly 57.5 µM), without a hit: top-dose activity change, negative = inhibition, most hits filed as inhibitors. hit rate 0.93% among 48,000. AID 1508623, 2021; active means well fitted inhibition curve with a large enough effect; inconclusive means small, poorly fitted or top-dose-only effect; inactive means no such curve, though single readings can be large or run the other way; further: nearly all actives have a fitted effect of over 50% in size
#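 HEK293 Fluc reporter, 2,500 cells/well, 24 h pre-culture; cpds up to 57.5 uM final, 24 h 37 degrees C; Dual-Glo, 10 min RT; normalized vehicle = 0%, zero RLU = -100%.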
# Active calls of the source: *; ? = inconclusive; / = no result given; & = joins results of further samples; [ ] = another dose, or the depositor's remark. Potency means the concentration at half of the fitted maximal effect.
no.	mol	PMP22 txn	HTT prom inh
1	CCn1c2ccccc2c2nnc(N3CCN(c4cccc(C)c4C)CC3)nc21	-22%	-1%
2	Cc1ccccc1Cn1nnc2c(=O)[nH]c(C3CCN(C(=O)c4ccccc4)CC3)nc21	-18%	-2%
3	Cc1cc(C)cc(N2C(=O)CSC23C(=O)N(Cc2c(F)cccc2Cl)c2ccccc23)c1 (stereo unspecified)	?	?
4	Cc1nc2nc(NCc3cccc(Br)c3)[nH]n2c(=O)c1Cc1ccccc1	-9%	-6%
5	COCCNC(=O)Cn1nc(-c2ccccc2)c2ccccc2c1=O	-2%	-19%
6	COc1ccc(-n2ccn(CC(=O)Nc3ccccc3C(F)(F)F)c(=O)c2=O)cc1OC	1%	-1%
7	O=C(CSCn1nnc2c(=O)[nH]c(Cc3ccc(F)cc3)nc21)Nc1ccccc1	2%	15%
8	O=C(NCc1ccccc1F)C(=O)NCC(c1ccco1)S(=O)(=O)c1cccs1 (stereo unspecified)	-7%	-15%
9	CCc1ccc(NCc2cc3ccc(OC)cc3n(CC(=O)Nc3ccc(C(C)C)cc3)c2=O)cc1	-52%	-32%
10	CCc1ccccc1NC(=O)NCc1ccc2c(c1)CCN2C(=O)c1ccccc1	-22%	-10%
11	CCCN(Cc1cccs1)C(=O)Nc1ccc(OCC)cc1	3%	84%[activator]
12	O=C(C1COc2ccccc2O1)N(Cc1cccnc1)c1nc2c(F)cc(F)cc2s1 (stereo unspecified)	-9%	-3%
13	COc1ccc(NC(=O)CN(C)S(=O)(=O)c2cnc[nH]2)cc1	-1%	-6%
14	Cc1ccc(C(=O)CSc2nc(-c3ccccc3)nc3c2CCCC3)c(C)c1	-13%	-18%
15	CC(C)(C)OC(=O)N1CCC(c2c(C(=O)N3CCN(C(=O)c4ccco4)CC3)cnn2-c2ccc(F)cc2F)CC1	-3%	-11%
16	Cc1ccc(CN2COc3ccc4c(C)cc(=O)oc4c3C2)cc1	?	-5%
17	CCSc1nnc2c(n1)OC(c1sccc1C)N(C(C)=O)c1ccccc1-2 (stereo unspecified)	-19%	-30%
18	COc1ccccc1C(=O)Nc1nnc(S(=O)(=O)N2CCCCC2)s1	11%	33%[activator]
19	CCC1CN(C(=O)C2CCN(S(=O)(=O)c3c(C)noc3/C=C/c3ccc(C)cc3)CC2)c2cc(C)ccc2O1 (stereo unspecified)	7%	-25%
20	COc1ccccc1C1C=C(c2ccc(C(C)C)cc2)Nc2nnnn21 (stereo unspecified)	10%	-27%[11.5 µM]
21	O=C(C1CCN(c2ncnc3c2nc2n3CCCCC2)CC1)N1CCN(c2ccccc2F)CC1	-43%	?
22	CCN(CCCNC(=O)CN1N=C(c2ccc(OC)cc2)CCC1=O)c1cccc(C)c1	?	?
23	Cc1nn(-c2ccc(N3CCOCC3)nn2)c(C)c1CCC(=O)NCc1ccc(Cl)cc1	5%	-32%
24	Fc1ccccc1C1=NC(c2ccc(C(F)(F)F)cc2)=Nc2ccccc2N1	-14%	?
25	COc1ccc(NS(=O)(=O)c2ccc(N3CCCCS3(=O)=O)cc2)cc1Cl	7.3µM*	14µM*
26	CCOC(=O)c1c(NC(=O)CSc2cn(CCNC(=O)c3ccc(OC)c(OC)c3)c3ccccc23)sc2c1CCC2	-26%	-31%
27	CCOc1ccc(CNC(=O)c2nn(-c3ccc(OC)cc3)c(=O)c3c2c2ccccc2n3C)cc1	-22%	-7%
28	COc1cc(C(CC(=O)NCc2ccccc2)N2Cc3ccccc3C2=O)cc(OC)c1OC (stereo unspecified)	0%	-14%
29	CCOC(=O)CC(NS(=O)(=O)c1ccc2[nH]c3c(c2c1)CCCC3)c1ccccc1Cl (stereo unspecified)	?	?
30	CCOC(=O)c1ccc(NC(=O)CSc2nnc(CNC(=O)c3ccc(OC)cc3)n2CC)cc1	3%	-4%
31	CCOc1ccc(NC(=O)c2c(NC(=O)c3ccccc3Br)sc3c2CCC(C)C3)cc1 (stereo unspecified)	3%	-4%
32	COc1cc(NC(=O)Cn2nc(C(F)(F)F)c3c2CCCC3)c(OC)cc1Cl	?	?
33	Cc1c(Cl)cccc1NC(=O)Cn1cnc2nc3c(cc2c1=O)CCCC3	?	-1%
34	CC(C)CSc1nnc(-c2ccccc2)c(-c2ccccc2)n1	6%	-23%
35	COc1ccc(CC(=O)NCCc2sc(-c3ccc(Cl)cc3)nc2C)cc1OC	?	-51%
36	CCC(=O)N1CCc2cc(Br)cc(S(=O)(=O)N3CCN(c4cc(C)ccc4C)CC3)c21	-12%	-3%
37	CCOc1ccc(CCNC(=O)C2CCN(Cc3nc(-c4ccc(OC)c(OC)c4)oc3C)CC2)cc1OCC	26%	-1%
38	CCOc1ccc(NC(=O)CSc2nnc(CNC(=O)c3c(F)cccc3Cl)o2)cc1	-3%	-8%
39	Cc1cc(C)c2c(n1)sc1c(=O)n(-c3cc(Cl)ccc3C)nnc12	-27%	?
40	O=C(Nc1c(C(=O)N2CCN(c3ccccc3)CC2)oc2ccccc12)c1ccc(Br)o1	-25%	-21%

# Shown with two lines to a compound: seven of the compounds above
# Fields: PMP22 txn | HTT prom inh
[37] CCOc1ccc(CCNC(=O)C2CCN(Cc3nc(-c4ccc(OC)c(OC)c4)oc3C)CC2)cc1OCC
    26% | -1%
[31] CCOc1ccc(NC(=O)c2c(NC(=O)c3ccccc3Br)sc3c2CCC(C)C3)cc1 (stereo unspecified)
    3% | -4%
[35] COc1ccc(CC(=O)NCCc2sc(-c3ccc(Cl)cc3)nc2C)cc1OC
    ? | -51%
[40] O=C(Nc1c(C(=O)N2CCN(c3ccccc3)CC2)oc2ccccc12)c1ccc(Br)o1
    -25% | -21%
[32] COc1cc(NC(=O)Cn2nc(C(F)(F)F)c3c2CCCC3)c(OC)cc1Cl
    ? | ?
[39] Cc1cc(C)c2c(n1)sc1c(=O)n(-c3cc(Cl)ccc3C)nnc12
    -27% | ?
[34] CC(C)CSc1nnc(-c2ccccc2)c(-c2ccccc2)n1
    6% | -23%

# The list goes on:
no.	mol	PMP22 txn	HTT prom inh
41	Cc1ccc(N(C)S(=O)(=O)c2nnc(NC(=O)C3CCCCC3)s2)cc1	4%	11%
42	Cc1ccc(NC(=O)c2oc3ccc4c(c3c2C)C(=O)CC(C)(C)O4)c(C)c1	-6%	-19%
43	CCNC(=O)CCCN1C(=O)CCn2nc(-c3cccn3C)cc21	-2%	-12%
44	CCOC(=O)c1ccc(NC(=O)Cn2cnc(S(=O)(=O)N3CCCC3)c2)cc1	?	-17%
45	O=C(c1cccs1)N(Cc1cccnc1)c1nc2c(F)cc(F)cc2s1	?	?
46	CN1CCN(C(CNC(=O)c2ccccc2F)c2ccc3c(c2)OCO3)CC1 (stereo unspecified)	?	-11%
47	CCc1nn2c(=O)cc(COC(=O)c3ccccc3NC(=O)c3ccc(C(C)(C)C)cc3)nc2s1	15%	3%
48	CCCc1nn2c(=O)cc(COC(=O)c3ccccc3NC(=O)COc3ccccc3F)nc2s1	-3%	0%
49	COc1ccc(-c2nc(C)c(CCNS(=O)(=O)c3cc(C)c(C)cc3C)s2)cc1	?	?
50	O=C1COc2ccc(-c3cc(-c4ccccc4)c4c(n3)-c3ccccc3OC4)cc2N1	?	-5%
51	CCCN(Cc1cccs1)C(=O)Nc1cc(C)cc(C)c1	5%	-9%
52	Cc1ccc(CS(=O)Cc2ccc(C(=O)NCc3ccccc3Cl)o2)cc1 (stereo unspecified)	-16%	-13%
53	COc1ccccc1N1CCN(C(=O)C2CCN(S(=O)(=O)c3cnc[nH]3)CC2)CC1	8%	3%
54	Cc1ccc2nc(NCc3ccccc3)c3nncn3c2c1	?	-4%
55	COc1ccc(S(=O)(=O)NCC(c2ccc(N(C)C)cc2)N2CCc3ccccc32)cc1 (stereo unspecified)	-21%	-16%
56	CCNC(=O)CC1C(=O)N(c2ccc(C)cc2)C(=O)N1CCC(C)C (stereo unspecified)	10%	-17%
57	CCc1ccc(NC(=O)Cn2c(=O)n(Cc3ccco3)c(=O)c3cccnc32)cc1	?	?
58	Clc1ccccc1OCCSc1nnc(-c2cccs2)o1	8%	-20%[11.5 µM]
59	Cc1cccc(CS(=O)(=O)c2ncc(Cl)c(C(=O)Nc3nc4ccc(F)cc4s3)n2)c1	6.5µM*	-11%
60	Cc1ccccc1CNCc1c(C(=O)O)c(C)n(Cc2ccc(F)cc2Cl)c1C	-6%	-14%
61	CCCN(C(=O)c1cc2c(s1)-c1ccccc1SC2)c1ccccc1F	?	?
62	Cc1ccc(NC(=O)N(Cc2cn(C)c3ccccc23)C2CCCCC2)cc1C	11µM*	37%[activator]
63	CC(C)(C)NCC(O)c1ccc(O)c(CO)c1 (stereo unspecified)	/	1%&7%
64	Oc1ccc(NCc2ccc(OCc3ccccc3)cc2)cc1	4.6µM*	-23%
65	CC(C)(Sc1ccc(CCN(CCCCC2CCCCC2)C(=O)NC2CCCCC2)cc1)C(=O)O	/	-2%
66	CC(C)N(Cc1ccccc1)C(=O)CN1C(=O)CSc2ccc(S(=O)(=O)N3CCCC3)cc21	?	-26%
67	COc1ccc(NC(=O)c2nc(-c3ccc(C)cc3)n3c2CCCCC3)cc1	?	?
68	Cn1c(=O)n(C)c2cc(N3CCOCC3)c(NS(=O)(=O)c3ccc(Cl)cc3)cc21	-30%	-10%
69	CCOc1ccccc1NC(=O)C1CCCN(S(=O)(=O)c2cn(C)cn2)C1 (stereo unspecified)	5%	-18%
70	CCc1nnc(SCC(=O)Nc2ccc(Cl)cc2F)c2cc3occc3n12	?	7%
71	CCOc1ccc(NS(=O)(=O)c2ccc3[nH]cc(C(=O)N(C)C4CCCCC4)c(=O)c3c2)cc1	0%	4%
72	Cc1ccc(-c2nonc2NC(=O)c2ccco2)cc1C	1%	-15%
73	Cc1ccc(CNC(=O)c2c(Nc3c(C)cccc3C)sc(C(=O)c3ccccc3)c2N)cc1	?	?
74	Cc1ccc(NC(=O)C2CCCN2S(=O)(=O)c2ccc3c(c2)C(C)(C)C(=O)N3C)cc1 (stereo unspecified)	9%	?
75	CCc1nn(CC(=O)N2CCCCC2)c(=O)c2cc3sc(C)cc3n12	7%	-7%
76	Cc1c(Cl)cccc1NC(=O)Cn1nc(C)c2sc3ccccc3c2c1=O	-8%	?
77	CCOC(=O)c1c(S(=O)(=O)NCC(=O)Nc2ccc(C)c(Cl)c2)c(C)n(C)c1C	3%	0%
78	CCOc1ccc(C2c3c(oc4ccc(C)cc4c3=O)C(=O)N2CCCN(C)C)cc1 (stereo unspecified)	?	12%
79	CCN(c1cccc(C)c1)S(=O)(=O)c1ccc(N2CCCCS2(=O)=O)cc1	-47%	?
80	COc1ccc(-c2cc3nc(C)c(CCC(=O)NCCc4ccc(Cl)cc4)c(C)n3n2)c(OC)c1	?	-17%
81	COc1ccc(C)cc1NC(=O)N1CC(C)Sc2ccccc21 (stereo unspecified)	-22%	-1%
82	O=C(C1CCC1)N1CCc2cc(S(=O)(=O)N3CCN(c4ccccc4)CC3)ccc21	?	-17%
83	CC(=O)OC[C@@H]1O[C@@H](n2ccc(=O)[nH]c2=O)[C@H](OC(C)=O)[C@H]1OC(C)=O	/	-21%
84	CCOC(=O)c1sc2ccccc2c1S(=O)(=O)Nc1ccc(OC)c(Cl)c1	4%	0%
85	Cc1ccc(C2CC(=O)n3nc(-c4ccc(F)cc4)nc3S2)cc1 (stereo unspecified)	-9%	81%[activator][11.5 µM]
86	Cc1oc(-c2cccc(Cl)c2)nc1CN1CCC(C(=O)NCCCN2CCN(c3cccc(Cl)c3)CC2)CC1	12µM*	-12%
87	CCS(=O)(=O)c1ccccc1C(=O)N(Cc1cccnc1)c1nc2cc(C)c(C)cc2s1	?	26%
88	Cc1cccc(NC(=O)c2cc(S(=O)(=O)N3CCN(c4ccccc4F)CC3)ccc2F)c1C	-8%	?
89	CCC(C(=O)Nc1ccccc1C(=O)OC)n1c(C)c2cnn(-c3ccccc3)c(=O)c2c1C (stereo unspecified)	?	-12%
90	CCOc1ccc(NC(=O)Cn2nnc(C(=O)NCCc3ccccc3)c2N)cc1	?	-27%

# (cont.)
no.	mol	PMP22 txn	HTT prom inh
91	CCOc1ccc(CN2C(=O)c3ccccc3Sc3ccc(C(=O)NC)cc32)cc1	-28%	?
92	CCOc1ccc(NC(=O)c2oc3ccccc3c2NC(=O)c2cc3ccccc3o2)cc1	?	21%
93	COc1ccc(Cn2c(C(=O)O)c(CNCCc3cccs3)c3ccc(OC)cc32)cc1	24%	-23%
94	Cc1nc(-c2ccccc2)sc1CCNS(=O)(=O)c1ccc(Br)cc1	?	-40%
95	CCOC(=O)c1cnc2cc(-c3ccc(OCC)cc3)nn2c1-c1ccccc1	-20%	-13%
96	Cc1cc(C)cc(NS(=O)(=O)c2ccc3[nH]cc(C(=O)N(C)Cc4ccccc4)c(=O)c3c2)c1	1%	-5%
97	CN(C)c1ccc(CNC(=O)CCCN2C(=O)CCn3nc(-c4cn(C)c5ccccc45)cc32)cc1	-2%	-9%
98	COc1cc(Nc2nn(-c3ccc(OC(F)(F)F)cc3)nc2C(C)=O)cc(OC)c1	2%	-1%
99	Cc1ccc(Cl)cc1NC(=O)CN1C(=O)C(C)(C)c2cc(S(=O)(=O)N3CCCCC3)ccc21	?	?
100	Cc1ccc(CNC(=O)c2ccc(Cn3c(=O)c4ccccc4n(CC(=O)Nc4ccc(C)cc4C)c3=O)cc2)cc1	14µM*	-8%

# High-throughput results from PubChem BioAssay.
